# Marburg entry inh – inhibitors of Marburg virus binding or cell entry | AID 540276 | Potency, µM (highest dose often 37.8 µM), for the others: at the highest dose activity change, negative = inhibition, hits mostly inhibitors | Marburg virus pseudotyped entry inhibition, cell reporter; control for the full effect not named in the record; about a third of the inactives were read at about 46 µM | 1.8% of 300,000 active; active = well fitted inhibition curve with a large enough effect; inconclusive = small, poorly fitted or top-dose-only effect, or effect the other way; inactive = flat fitted curve, though single readings scatter; tested in HEK293 cells; about a fifth of its hits are not listed in these tables; further: on the % scale 0 is the no-effect control and ±100 the full control effect; luciferase read-out
# NS1 inh – inhibitors of influenza NS1 protein function | 0.4% of 270,000 active | S. cerevisiae slowed by influenza A NS1, growth recovery by OD600 | Potency, µM (titrated, usually from 46.1 µM), for inactives: at the highest dose activity, positive = more growth | AID 2326; further: actives are rising curves; nearly all actives have a fitted effect of over 50% in size
#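 Read-out: OD600 growth recovery of NS1-expressing budding yeast. Cells grown overnight at 30C in -URA glucose medium, washed, resuspended and diluted 1:100 in 2% galactose assay medium, pH 6.0. Same strain lacking NS1 served as positive control.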
# RE007 growth inh – less growth of the S. pombe RE007 Vpr strain; AID 651644; S. pombe RE007 Vpr strain, BacTiter-Glo ATP luminescence, 24 h; control for the full effect not named in the record; Potency, µM (top dose mostly 92.2 µM), for inactives: top-dose activity change, negative = less growth; 0.21% of 360,000 active; active = well fitted falling curve with a large enough effect; inconclusive = small, poorly fitted or top-dose-only effect; inactive = no such curve, though single readings can be large or run the other way;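 further: on the % scale 0 is the no-effect control and ±100 the full control effect; nearly all actives have a fitted effect of over 50% in size; the assay follows cell death caused by Vpr and the record does not say whether a fall means rescue or toxicity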
#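 Fission yeast RE007 carrying one integrated HIV-1 vpr copy, seeded at OD 0.01 in PMG+AL medium with 23 nL pinned compound. Grown 24 h at 30 degrees; viability read by BacTiter-Glo luminescence after 5 min.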
# Lassa entry inh – Lassa virus entry inhibition; AID 540256; Potency, µM (titrated, usually from 37.9 µM), for inactives: top-dose activity change, negative = inhibition, most hits filed as inhibitors; Lassa virus pseudotype entry inhibition, cell reporter; control for the full effect not named in the record; 1.2% of 300,000 active; active means well fitted inhibition curve with a large enough effect; inconclusive means small, poorly fitted or top-dose-only effect, or effect the other way; inactive means flat fitted curve, though single readings scatter; tested in HEK293 cells; further: on the % scale 0 is the no-effect control and ±100 the full control effect; nearly all actives have a fitted effect of over 50% in size; luciferase read-out
# Cruzain Triton – inhibitors of Trypanosoma cruzi cruzain with detergent; P25779; purified cruzain, Z-FR-AMC fluorescence, 0.01% Triton; Potency, µM, for the others: max response, negative = inhibition, hits mostly inhibitors; 0.43% of 200,000 active; AID 1478; active means well fitted curve in the direction sought with a large enough effect; inconclusive means small, poorly fitted or top-dose-only effect, or another doubt; inactive means no such curve, though single readings can be large; an effect the other way counts as inactive or inconclusive;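 further: plate controls were neutral wells for no effect and buffer without enzyme for full effect; nearly all actives have a fitted effect of over 40% in size; top concentration of the series not given in the record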
# Target sequence (P25779 123-467 limits assumed): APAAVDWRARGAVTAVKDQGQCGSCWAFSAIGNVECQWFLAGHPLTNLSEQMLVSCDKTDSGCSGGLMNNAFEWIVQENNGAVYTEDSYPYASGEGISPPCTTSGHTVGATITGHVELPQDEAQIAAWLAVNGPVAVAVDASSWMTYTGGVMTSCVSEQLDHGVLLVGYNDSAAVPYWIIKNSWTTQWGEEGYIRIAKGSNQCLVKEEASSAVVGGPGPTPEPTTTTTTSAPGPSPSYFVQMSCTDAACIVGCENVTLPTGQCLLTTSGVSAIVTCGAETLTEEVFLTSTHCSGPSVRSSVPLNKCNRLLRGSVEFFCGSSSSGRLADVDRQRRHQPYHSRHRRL
#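 Steps: dispense cruzain (1.5 nM final) in acetate buffer pH 5.5 with DTT and 0.01% Triton X-100; pin-transfer compounds; incubate 15 min RT; add Z-FR-AMC (2 uM final); read fluorescence every 30 s, using the 60 s intensity change.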
# SARS PLP yeast – inhibitors of SARS-CoV papain-like protease in yeast. S. cerevisiae expressing SARS-CoV PLpro, growth rescue; control for the full effect not named in the record. Potency, µM (titrated, usually from 32.9 µM), for inactives: at the top dose activity, positive = growth rescue. 0.19% of 330,000 active. AID 485353; further: 0% is about no effect; nearly all actives have a fitted effect of over 55% in size; growth read by luminescence after 48 h
# 2A StopGo – FMDV 2A StopGo reporter, luciferase signal; human cells with a luciferase reporter of 2A StopGo recoding; control for the full effect not named in the record; Potency, µM (doses to about 57.9 µM), without a hit: top-dose signal change, negative = less light; 1.2% of 410,000 active; active = well fitted falling curve with a large enough effect; inconclusive = small, poorly fitted or top-dose-only effect; inactive = no such curve, though single readings can be large or run the other way; tested in HEK293T cells; further: on the % scale 0 is the no-effect control and ±100 the full control effect; nearly all actives have a fitted effect of over 45% in size; luciferase light after 4 h
# Cruzain noTriton – blocks cruzain activity in detergent-free assay; 2.3% of 200,000 active; P25779; Potency, µM, inactives show max response, negative = inhibition, usual class: inhibitors; purified cruzain, Z-FR-AMC fluorescence, no detergent; active means well fitted curve in the direction sought with a large enough effect; inconclusive means small, poorly fitted or top-dose-only effect, or another doubt; inactive means no such curve, though single readings can be large; an effect the other way counts as inactive or inconclusive;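 further: plate controls were enzyme without inhibitor for no effect and buffer without enzyme for full effect; nearly all actives have a fitted effect of over 40% in size; top concentration of the series not given in the record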
#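 Purified cruzain at 1.5 nM, pre-incubated 15 min with compound at room temperature in 100 mM sodium acetate pH 5.5, 5 mM DTT, 0.00005% Triton X-100. Reaction started with 2 uM Z-FR-AMC; AMC fluorescence increase over 60 s gives rate.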
# Starred values were filed as active, the others as inactive; ? = inconclusive; nt = no result given; & = joins results of further samples; [ ] = remark or other dose. Unless noted, the call rests on the fitted dose curve; in most records, active means well fitted rising curve with a large enough effect; inconclusive means small, poorly fitted or top-dose-only effect; inactive means no such curve, though single readings can be large or run the other way. Potency means the concentration at half of the fitted maximal effect.
SMILES,Marburg entry inh,NS1 inh,RE007 growth inh,Lassa entry inh,Cruzain Triton,SARS PLP yeast,2A StopGo,Cruzain noTriton
CCOC(=O)c1cnc2c(OC)cccc2c1N1CCN(c2ccccn2)CC1,11.2µM*,-6.5%,0.3%,?,nt,-0.7%,31.6µM*,nt
O=C(Cc1ccccc1)NCCc1c[nH]c2ccccc12,0.0%,11.9%,-4.5%,?,nt,?,1.3%,nt
C/C(=N\N=C1\NC(=O)C(CC(=O)Nc2ccccc2F)S1)C1CCCCC1 (centres undefined),0.9%,-15.5%,-7.6%,?,nt,-2.5%,-7.2%,nt
Cn1nnc(NC(=S)NC(=O)c2cc3ccccc3o2)n1,nt,-64.9%,-1.4%,nt,nt,-0.6%,27.4%,nt
Cc1cc(/C=N/n2cnnc2)c(O)c([N+](=O)[O-])c1,?,-66.3%,?,4.0%,-6.9%,-23.0%,0.0%,-12.6%
O=C(CN(Cc1ccccc1Cl)C(=O)CNS(=O)(=O)c1ccc(F)cc1)NCC1CCCO1 (centres undefined),1.0%[46.1 µM],2.8%,6.3%,0.4%,nt,1.1%,7.4%,nt
C=CCOc1cccc(C2c3c(oc4ccccc4c3=O)C(=O)N2c2ccccn2)c1 (centres undefined),-0.3%,-0.9%,-23.7%,nt,0.4%,3.0%,-7.1%,?
Cn1nnnc1SCC(=O)NCC(=O)c1ccccc1,11.4%&11.4%,5.6%,4.8%,?,5.8%,5.8%,13.4%,-3.1%
COc1ccc(Cl)cc1-n1c(C)cc(C=O)c1C,-11.7%,-6.9%,7.7%,?,-2.5%,1.8%,-29.6%,1.0%
CCC(=O)N1CCN(c2ccccc2NC(=S)NC(=O)c2ccco2)CC1,-22.1%,12.0%,-24.2%,8.1%,nt,0.8%,0.0%,nt
CCOC(=O)Nc1ccc2c(c1)C(=NNC(N)=S)c1ccccc1-2,12.6µM*,nt,0.4%,?,nt,nt,?,nt
CN(CC(=O)OCC(N)=O)S(=O)(=O)c1ccc(Cl)cc1,-17.9%[46.1 µM],nt,-15.0%,nt,nt,0.8%,0.4%,nt
O=C(/C=C/c1ccccc1Cl)N1CCCN(C(=O)/C=C/c2ccccc2Cl)CC1,-1.1%,13.2%,-6.4%,-1.3%,-17.8%,?,21.5%,5.4%
CCOC(=O)c1cn(CC)c2cc(F)c(F)cc2c1=O,1.6%,-3.6%,-1.7%,?,nt,0.0%,-15.9%,nt
CCN(CC)C(=O)CSc1nc2cc3c(cc2c(=O)n1Cc1ccc(C(=O)NCCc2ccc(OC)c(OC)c2)cc1)OCO3,nt,nt,nt,-10.3%[46.1 µM],1.5%,nt,1.2%,?
C=CCN1C(=O)C(CC(=O)NCC)SC1=Nc1ccccc1OC (centres undefined),nt,0.5%,8.0%,nt,nt,-6.2%,1.5%,nt
COC(=O)c1nn(-c2ccc(F)cc2)ccc1=O,4.2%,4.3%,7.0%,0.7%,nt,0.8%,11.9%,nt
Cc1cc(NC(=O)c2ccc3nccnc3c2)ccc1Br,?,nt,-6.4%,-24.9%,nt,-9.5%,-30.7%,nt
O=c1[nH][nH]c(=O)c(Cl)c1Cl,7.4%[46.1 µM],nt,41.4%,-13.6%[46.1 µM],nt,nt,1.6%,nt
CCCC(O)(c1ccc(OC)cc1)C(CN(C)C)c1ccccc1 (centres undefined),?,-1.0%,7.2%,5.1%,4.2%,-0.7%,8.0%,1.2%
O=C(Nc1ccccc1F)C(=Cc1sc(N2CCOCC2)nc1-c1ccccc1)C(=O)Nc1ccccc1F,-4.9%[46.1 µM],3.7%,-5.2%,2.1%,-1.8%,-24.1%,0.0%,-27.6%
COc1ccc(-c2cc(OC(=O)c3ccccc3Cl)c3c(C)oc(C)c3c(=O)c2)cc1OC,?,nt,nt,-24.2%[46.1 µM],-27.1%,nt,-1.5%,-1.9%
COC(=O)c1cc2nc(-c3ccc(OC)c(OC)c3)cc(C(F)(F)F)n2n1,-3.4%,-14.1%,3.8%,4.3%,-0.3%,0.1%,-23.7%,?
CCN1C(=O)N(CC)C2C1N(CO)C(=O)N2CO (centres undefined),15.2%[46.1 µM],nt,-10.4%,-10.4%,nt,-9.1%,-4.2%,nt
Cc1ccc(SC(CC(=O)c2ccc(C(C)(C)C)cc2)C(=O)O)cc1 (centres undefined),?,-60.4%,-15.4%,-4.8%[46.1 µM],nt,-2.9%,-8.8%,nt

# Overlap with the part before: four entries, followed by the next part.
SMILES,Marburg entry inh,NS1 inh,RE007 growth inh,Lassa entry inh,Cruzain Triton,SARS PLP yeast,2A StopGo,Cruzain noTriton
COc1ccc(-c2cc(OC(=O)c3ccccc3Cl)c3c(C)oc(C)c3c(=O)c2)cc1OC,?,nt,nt,-24.2%[46.1 µM],-27.1%,nt,-1.5%,-1.9%
COC(=O)c1cc2nc(-c3ccc(OC)c(OC)c3)cc(C(F)(F)F)n2n1,-3.4%,-14.1%,3.8%,4.3%,-0.3%,0.1%,-23.7%,?
CCN1C(=O)N(CC)C2C1N(CO)C(=O)N2CO (centres undefined),15.2%[46.1 µM],nt,-10.4%,-10.4%,nt,-9.1%,-4.2%,nt
Cc1ccc(SC(CC(=O)c2ccc(C(C)(C)C)cc2)C(=O)O)cc1 (centres undefined),?,-60.4%,-15.4%,-4.8%[46.1 µM],nt,-2.9%,-8.8%,nt
Cc1ccccc1CN1CCC(CNC(=O)c2cc3ccc4cccnc4c3[nH]2)CC1,nt,nt,nt,?,-4.1%,nt,-16.5%,-9.7%
COc1ccccc1N1CCN(S(=O)(=O)c2ccc(NC(C)=O)cc2)CC1,?,-7.0%,2.2%,13.7%[46.1 µM],nt,1.5%,-15.2%,nt
COc1ccc(N2CCN(C(=O)c3ccc4c(=O)n(CC5CCCO5)c(=O)[nH]c4c3)CC2)cc1 (centres undefined),24.3%,-9.3%,-7.1%,0.5%,2.8%,2.3%,?,7.6%
N#Cc1nc(COc2ccccc2F)oc1NCc1ccc(F)cc1,nt,-18.3%,-4.1%,nt,-4.2%,-3.6%,12.3%,-3.5%
CCOC(=O)Cn1nc(C)n(-c2c(C)cccc2C)c1=O,9.6%[46.1 µM],nt,-10.4%,0.7%,nt,0.0%,-7.0%,nt
COc1ccc2[nH]c(=O)c(CN(CCO)S(=O)(=O)c3c(C)ccc4nsnc34)cc2c1,11.0%,-0.1%,-2.0%,0.4%,-4.0%,3.7%,-12.2%,-4.4%
O=C(COc1ccccc1)N1CCN(S(=O)(=O)c2ccc(Cl)cc2)CC1,-9.9%,-4.6%,3.1%,0.0%,4.1%,5.8%,-14.7%,?
CS(=O)(=O)Nc1ccc(C2=NN(C(=O)CCCC(=O)O)C(c3cccs3)C2)cc1 (centres undefined),-16.4%[46.1 µM],3.3%,-6.4%,17.5%[46.1 µM],nt,0.9%,-0.7%,nt
CCc1nc(NCCN2CCOCC2)c(C#N)c2c1CCCC2,?,-4.9%,-13.8%,-11.1%,-2.1%,-0.4%,-8.1%,5.9%
Fc1ccc(Nc2nc(N/N=C/c3ccco3)nc(N3CCCCC3)n2)cc1,nt,14.7%,17.3%,nt,nt,-8.2%,15.9%,nt
Brc1ccc2c(c1)OCCOCCOCCOCCOCCO2,5.3%,-0.4%,-10.4%,2.9%,-1.5%,-26.5%,-12.4%,3.8%
CCOC(=O)C1CCN(c2c(-c3ccccc3)c3cc(Cl)ccc3[nH]c2=O)CC1,nt,7.0%,0.6%,nt,-7.6%,18.4%,-18.3%,20.9%
COCCNc1c2c(nc3c(-c4ccccc4)c(C)nn13)CCCC2,?,-171.5%,-25.3%,-1.4%,1.0%,-20.5%,?,-12.3%
CN(CCC(=O)Nc1ccc(Cl)cc1)Cc1ccccc1,?,8.0%,9.4%,-10.3%[46.1 µM],nt,-0.8%,4.4%,nt
Cc1ccc(C(=O)NCC(=O)NCc2cc(=O)n(C)c(=O)n2C)cc1C,nt,-9.2%,1.3%,nt,nt,?,-6.2%,nt
O=S(=O)(NCc1ccccc1)c1ccc(-n2cccn2)cc1,nt,-12.2%,-10.8%,nt,nt,-6.4%,19.8%,nt
CC(=O)N(Cc1c(C)nn(-c2ccccc2)c1Cl)c1ccc(Cl)cc1,1.7%,-22.6%,11.4%,-2.3%,-5.9%,9.4%,?,15.4%
CC(C)N=C(Nc1ccc(Cl)cc1)c1cccnc1,?,11.9%,-0.9%,1.7%,5.1%,8.4%,2.6%,-1.4%
CCOc1ccc(S(=O)(=O)n2cnc(C)c2)cc1,nt,-12.3%,8.0%,nt,nt,1.2%,-17.4%,nt
O=C(Cn1[nH]c(=O)c2ccccc2c1=O)NCc1cccnc1,-6.3%[46.1 µM],1.8%,-29.8%,3.6%,-3.0%,-4.4%,-0.8%,-9.8%
CC1=C(C(=O)OC2CCCCCCC2)C(c2cccc(O)c2)NC(=O)N1 (centres undefined),?,2.5%,0.3%,1.83µM*,-7.4%,-0.3%,?,-2.7%
CC1=CN2C(=NC(=O)CC2(C)C(=O)N(CC(=O)NC2CCCC2)c2cc(C)cc(C)c2)C=C1 (centres undefined),nt,-0.9%,4.8%,nt,nt,-0.1%,3.7%,nt
Cc1cccc(NC(=O)c2cccnc2Oc2ccccc2)c1C(=O)O,-1.9%[46.1 µM],8.9%,3.4%,?,nt,2.6%,-17.5%,nt
COc1ccc(-n2ccnc(SCC(=O)NCc3ccc(C)cc3)c2=O)cc1Cl,-25.3%,nt,-3.2%,?,nt,-16.0%,-17.2%,nt
CC(C)c1ccc(NC(=O)Cn2c(=O)n(CC3CCC(C(=O)NCCc4ccccc4)CC3)c(=O)c3ccccc32)cc1 (centres undefined),-0.4%[46.1 µM],nt,nt,3.1%[46.1 µM],-0.5%,nt,-12.0%,-23.1%
COC(=O)[C@H](CCSC)NC(=O)N1CCC(C)CC1,20.4%,6.1%,7.7%,19.8%,1.7%,-8.4%,10.3%,4.2%

# From PubChem
